# NPYLR7 ag = mosquito NPYLR7 agonism; actives 0.15% (n = 270,000); AID 1259423; activation, % at 10 µM; HEK293T NPYLR7/Galpha15, GCaMP6s calcium fluorescence; in the data active = activation above about 40%;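 also: 0% = vehicle and 100% = reference agonist at the receptor; some compounds past the cut are filed as inactive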
# NPYLR7 ag max-min = recorded beside NPYLR7 ag, whose call it bears; activation, %; measured here: Max-Min RFU normalised activation; some inactives read as strong as hits;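 span of the calcium signal over five minutes; 0% = vehicle and 100% = native peptide agonist; compound fluorescence can raise it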
# Active calls of the source: *; & = joins results of further samples. These rows are one share of the data (hit frequency here may not be typical).
SMILES,NPYLR7 ag,NPYLR7 ag max-min
Cc1cc(C)n(CCC(=O)N2CCc3c(cnc(C)c3CNS(=O)(=O)c3cccs3)C2)n1,17,0
COc1ccccc1Oc1coc2c3c(ccc2c1=O)OCN(C1CC1)C3,-9,-15
CCCn1c(N)c(C(=S)NC(=O)C(C)C)c(=O)n(CCC)c1=O,-1,-1
CO[C@H]1CN(C(=O)c2csc(-c3cccs3)n2)[C@@H]2CC[C@@H](O)[C@H]1C2,27,30
O=c1c2ccncc2ncn1C1CCCCC1,-1,-5
CCc1nc2sccc2c(=O)[nH]1,-1,-1
Cn1c(=O)c2c(nc(CN3CCOCC3)n2Cc2ccc(Cl)cc2Cl)n(C)c1=O,0,11
CCCN(CC(=O)Nc1ccccc1C)CC(=O)N1CCc2ccccc2C1,-1,-5
COc1ccccc1N1CCN(c2ccc(NC(=O)Nc3cc(C(F)(F)F)cc(C(F)(F)F)c3)cc2C(=O)N2CCCC2)CC1,-10,-11
CCc1cc(=O)n2c(n1)SCC2CC(=O)N1CCOCC1 (stereo unspecified),-2,-4
O=C(CSC1CCCC1)c1cccs1,-5,-9
CC(=O)c1cnc2nc(C(F)(F)F)nn2c1C,-1,-4
CCc1cc(CNS(=O)(=O)c2cc(F)c(F)c(F)c2)[nH]n1,8,8
COc1ccc(S(=O)(=O)NC(C)c2ccc3ccccc3c2)cc1Br (stereo unspecified),-2,-8
CCOc1ccccc1N1CCN(C(=O)c2cc(-c3ccccc3OC)n3nc(-c4ccccc4)cc3n2)CC1,10,13
Cc1cccc(Cn2c(=O)c(C(=O)N(C)C3CCCCC3)nn(-c3ccc(Cl)cc3)c2=O)c1,7,4
O=C1NCCCCC1Sc1ncnc2sc(-c3ccccc3)cc12 (stereo unspecified),-3,-3
Cc1ccc(-n2nc(-c3cccn3C)cc2C(=O)NCc2cccc(C(F)(F)F)c2)c(C)c1,6,16
O=C1CC(c2ccccc2)N1CN1CCN(Cc2cccs2)CC1 (stereo unspecified),-3,13
COCCN(CC(=O)N(Cc1ccc(F)cc1)Cc1cccs1)C(=O)c1ccc(Cl)c(Cl)c1,-7,1
O=C(CCc1cnccn1)N1CCOC(Cc2cccc(C(F)(F)F)c2)C1 (stereo unspecified),4,2
COc1ccccc1C(=O)N1CCN(C(C(=O)NCc2ccco2)C2CCCC2)CC1 (stereo unspecified),-5,-4
COc1ccc2c(c1)CCN(C(=O)c1csc(-n3cccc3)n1)C2,2,-1
O=C(CN1CCc2sccc2C1c1ccc(Cl)cc1)N1CCCN(C(=O)c2ccc(C(F)(F)F)cc2)CC1 (stereo unspecified),3,-4
CC(=O)Nc1ccc(S(=O)(=O)N2CCN(Cc3cc(=O)c(OCc4cc(C)cc(C)c4)co3)CC2)cc1Cl,1,-4

# The listing continues:
SMILES,NPYLR7 ag,NPYLR7 ag max-min
Cn1c(=O)[nH]c(=O)c2c1nc1n2CCCN1c1ccc(F)cc1,1,0
COC(=O)c1ccc(CSc2ccc3nnc(-c4ccc(OC)c(OC)c4)n3n2)o1,8,14
O=S(=O)(Nc1ccc2nc(N3CCCC3)sc2c1)c1cc(F)cc(F)c1,-3&2,7&-2
CCCCN(C)CC1CCN(c2cncc3nncn23)CC1,0,-1
Cc1ccc2nc(N(CCCN(C)C)C(=O)CCS(=O)(=O)c3ccccc3)sc2c1,4,4
Cc1cc(C(=O)Nc2ccccc2-c2nc(CNC(=O)c3ccc(F)cc3F)c(C)o2)c(C)o1,7,4
CC(Nc1nc(-c2cccnc2)nc2ccccc12)c1ccccc1 (stereo unspecified),-1,-9
Nc1nnc(SCCSc2cc(Cl)ccc2Cl)s1,4,6
Cc1cc(C)c(C#N)c(Nc2cccc(C(F)(F)F)c2)n1,3,4
COc1ccccc1NC(=O)c1cc(-c2ccccc2Cl)nc2ccccc12,3,6
COc1ccc(Cl)cc1NC(=O)CCC1CCCN(C(=O)c2ccc3cc[nH]c3c2)C1 (stereo unspecified),-1,-3
Cc1cccc(C(=O)N(Cc2csc(COc3cccc4ccccc34)n2)C2CC2)c1,16,17
CC(=O)c1c(C)[nH]c(C(=O)CN2CC(C)CC(C)C2)c1C (stereo unspecified),8,7
Cc1ccc2c(c1)oc(=O)n2C1CCN(C(=O)c2cccs2)CC1,0,0
COc1ccc(S(=O)(=O)N2CCc3ccccc3C2)cc1N1CCN(C(=O)c2ccccc2OC(F)(F)F)CC1,28,13
O=C(c1ccc(Cl)cc1)N1CCC(c2nc(-c3ccc(F)c(F)c3)no2)CC1,3,2
O=C(c1ncccc1O)N1CCCC(N2CCN(c3ccccc3)CC2)C1 (stereo unspecified),2,2
COc1ccc(-c2nc3ccc(C)cn3c2NC(=O)COCc2ccccc2)cc1OC,-3,-2
Cc1cccc(CSc2nc3c(c(=O)n2Cc2ccccc2)SCC3)c1,6,-2
CCN(CC(O)c1ccc(C)cc1)C(=O)C1CC2CCC1O2 (stereo unspecified),-2,-3
C#CCOc1ccccc1-c1c(-c2ccccc2)ncn1C,-11,-19
CC(C)N(CC(=O)N(Cc1ccccc1)Cc1cccn1C)C(=O)COc1ccc(Cl)cc1,0,14
Cc1occc1-c1nnc(SCc2cc(=O)n3ccsc3n2)n1C,8,8
CC(C)NC(=O)Cn1nc(C2CC2)c2cnn(-c3ccccc3)c2c1=O,-1,-4
CC(OC(=O)CSCc1ccc(Cl)c(Cl)c1)C(=O)NC(C)(C)C (stereo unspecified),-1,16

# (next part)
SMILES,NPYLR7 ag,NPYLR7 ag max-min
O=C(Nc1cccnc1Cl)c1nn2c(C(F)(F)F)cc(-c3ccc(Br)cc3)nc2c1Cl,7,14
Cc1ccc(SCc2cc(=O)[nH]c(N=C(N)Nc3cccc4ccccc34)n2)cc1,10,8
C=CCSC1=C(C#N)C(C)(C)C(C#N)C(=O)N1 (stereo unspecified),-3,-5
Cc1ccc(S(=O)(=O)NC2(C#N)CCC2)c(F)c1,-3,-4
COc1ccc(N2C(=O)C3CC=CCC3C2=O)cc1OC (stereo unspecified),10,10
COc1ccccc1C(C)N(C)C(=O)Cc1ccc(F)cc1C (stereo unspecified),4,0
Brc1ccc(COCc2ccccc2)cc1,-2,-3
CCOc1ccc(Nc2nc(NCC(C)O)nc3c2cnn3-c2ccccc2)cc1 (stereo unspecified),-2,-1
Cc1nc2c3ccccc3ncn2n1,-7,-14
COc1ccc(CNC(=O)C(C)(C)n2cc(-c3ccc(C)cc3C)cn2)cc1,-14,-15
CCOC(=O)c1c(NC(=O)CC2CC3CCC2C3)sc2c1CCC2 (stereo unspecified),2,0
O=C(COc1ccccc1)NCC(=O)N1CCN(S(=O)(=O)c2ccc3c(c2)OCCO3)CC1,1,10
COCC(C)NC(=O)Nc1cc(C(=O)OC)cc(F)c1C (stereo unspecified),-2,1
Cc1cc2oc(=O)cc(C)c2cc1NC(=O)C1CCOC1 (stereo unspecified),-6,-8
CCN1CCN(c2ncc(-c3cc(=O)[nH]c(Nc4ccccc4)n3)c(C)n2)CC1,1,-2
Cc1nc(SCC(=O)c2c(N)n(C)c(=O)n(C)c2=O)c2c3c(sc2n1)CCC3,-4,-8
CSc1nc(NCc2ccco2)c2sc3c(c2n1)COC(C)(C)C3,-3,-6
COc1cccc(CCNC(=O)c2cc3n(n2)CCCNC3)c1OC,5,6
COc1ccc(S(=O)(=O)Oc2cccc(CN(Cc3ccc(F)cc3)C(=O)Nc3ccccc3OC)c2)cc1,4,13
CCn1c(CCNC(=O)/C=C/c2cncc(F)c2)nc2ccccc21,5,5
O=C(Cn1c(CO)c[nH]c1=S)NCc1ccc(Cl)cc1,1,-3
CCc1cccc(C(=O)N2CCCN(C3CCOCC3)CC2)c1O,8,6
C=C(C)CN(C)C(=O)C12CC3CC(C)(CC(C)(C3)C1)C2,11,9
CN(Cc1ccc2ccccc2c1)C(=O)NCc1ccccc1F,1,4
CCN(CC)CCNc1nc(C)nc2c1sc1nc3c(cc12)COC(C)(C)C3,16,7

# Entries listed so far containing two or more sulfur atoms, in the order listed:
SMILES,NPYLR7 ag,NPYLR7 ag max-min
Cc1cc(C)n(CCC(=O)N2CCc3c(cnc(C)c3CNS(=O)(=O)c3cccs3)C2)n1,17,0
CO[C@H]1CN(C(=O)c2csc(-c3cccs3)n2)[C@@H]2CC[C@@H](O)[C@H]1C2,27,30
O=C(CSC1CCCC1)c1cccs1,-5,-9
O=C1NCCCCC1Sc1ncnc2sc(-c3ccccc3)cc12 (stereo unspecified),-3,-3
O=S(=O)(Nc1ccc2nc(N3CCCC3)sc2c1)c1cc(F)cc(F)c1,-3&2,7&-2
Cc1ccc2nc(N(CCCN(C)C)C(=O)CCS(=O)(=O)c3ccccc3)sc2c1,4,4
Nc1nnc(SCCSc2cc(Cl)ccc2Cl)s1,4,6
Cc1cccc(CSc2nc3c(c(=O)n2Cc2ccccc2)SCC3)c1,6,-2
Cc1occc1-c1nnc(SCc2cc(=O)n3ccsc3n2)n1C,8,8
Cc1nc(SCC(=O)c2c(N)n(C)c(=O)n(C)c2=O)c2c3c(sc2n1)CCC3,-4,-8
CSc1nc(NCc2ccco2)c2sc3c(c2n1)COC(C)(C)C3,-3,-6

# Following part
SMILES,NPYLR7 ag,NPYLR7 ag max-min
Cc1cc(N2CCN(C(=O)CC3C(=O)NCCN3Cc3ccccc3F)CC2)cc(C)n1 (stereo unspecified),10,5
O=C(COCc1ccccc1)N1CCc2ccccc2C1c1ccccc1Cl (stereo unspecified),-4,2
CCC(=O)Nc1cccc(C(=O)N2CCCC2c2ccccn2)c1 (stereo unspecified),3,2
Cc1nn(CC(C)C)c(C)c1CCC(=O)Nc1ccc(Br)cc1,-1,0
O=C1CCC(CCC(=O)N2CCCC2c2ccc(F)cc2)(Cc2ccc(Cl)cc2)N1 (stereo unspecified),4,-5
Brc1ccc(-c2noc(-c3ccco3)n2)cc1,4,1
CC(C)n1nccc1NC(=O)COC(=O)C1(c2cccc(F)c2)CCCC1,1,-2
Cc1ccc2c(C)c(C(=O)N3CCCC(Nc4ccc5c(c4)OCCO5)C3)oc2c1 (stereo unspecified),5,4
O=C(NC(C1CC1)C1CC1)c1cnc2c(cnn2Cc2ccccc2)c1,1,-2
CCOC(=O)C1CCN(S(=O)(=O)c2ccc3[nH]cc(C(=O)O)c(=O)c3c2)CC1,-3,-1
CC(=O)c1cccc(C2=NOC(C)C(=O)N2Cc2ccc(S(C)(=O)=O)cc2)c1 (stereo unspecified),0,0
CCCCN(CC(=O)Nc1cc(-c2ccccc2)nn1-c1ccc(Cl)cc1)S(=O)(=O)c1ccc(C(C)(C)C)cc1,15,14
CC(=O)NC1=NN(C(C)=O)C2(S1)C(=O)N(Cc1ccccc1)c1c(Cl)cccc12 (stereo unspecified),0,6
COc1ccc(CN(C(=O)CSCc2nc3scc(-c4cccs4)c3c(=O)[nH]2)C2CC2)cc1,6,6
Cc1ccc(-c2cc(C(=O)Nc3sc4c(c3C(N)=O)CCCC4)c3ccccc3n2)cc1,1,-3
CC1Cc2ccccc2N1C(=O)c1cnc2c(cnn2C(C)C)c1 (stereo unspecified),2,8
CCSC1CCCCN(Cc2nc3ccccc3c(=O)[nH]2)C1 (stereo unspecified),-2,-5
Cc1nc(C)c(CC(=O)N2CCCC(CNC(=O)c3ccco3)C2)s1 (stereo unspecified),-6,-7
CCn1c2ccccc2c2nnc(SCC(=O)NC(=O)NC)nc21,13,3
COCCN1C[C@H]2CN(C)c3ccccc3[C@@H]2N(C(=O)c2ccc(C)cc2)CCC1=O,6,17
COc1cc(-c2nnc(COc3ccc(Cl)cc3Cl)o2)cc(OC)c1OC,10,15
CCc1nc2ccc(C(=O)NCCCN(C)C)cn2c1N(C)Cc1ccc(OC)cc1,-8,-13
O=C(CS(=O)c1ccccc1[N+](=O)[O-])Oc1ccc(Cl)cc1Cl (stereo unspecified),2,8
CCC(C)N(Cc1cccc(C)c1)CC(O)COC(C)(C)C (stereo unspecified),11,6
COc1cccc(-c2nnc(SCc3nc(C(=O)NCc4ccccn4)cs3)n2-c2ccccc2)c1,2,12

# (more compounds)
SMILES,NPYLR7 ag,NPYLR7 ag max-min
COc1ccc(S(=O)(=O)NC(=O)C2(C)CCN2C(=O)C2(c3ccccc3)CCCC2)cc1OC (stereo unspecified),4,2
COc1ccc(Br)cc1/C=C/C(=O)N(C)CCc1ccc(OC)c(OC)c1,-7,-10
COC(=O)c1cc2n(n1)CCN(C(=O)c1ccc(C)[nH]c1=O)C2,15,1
COC(=O)CCn1cc([C@@H]2C[C@H](NC(C)=O)C[C@H](C3CCCCC3)O2)cn1,10,7
CC(=O)Nc1ccc2nc(-c3c(-c4ccccc4)ncn3CCCO)ccc2c1,1,-2
COc1cccc(CSc2nnc(C(C)NC(=O)c3cccc(C(F)(F)F)c3)n2-c2cc(Cl)ccc2Cl)c1 (stereo unspecified),7,12
O=C(CSc1ccc(-c2cccc([N+](=O)[O-])c2)nn1)N1CCCCCC1,2,1
COc1cccc(-c2ccc(NC(=O)C3CCCN(C(=O)c4cnsn4)C3)cc2)c1 (stereo unspecified),11,2
COc1cccc2c1CCCC2CCCN1CCN(C2CCCCC2)CC1 (stereo unspecified),-2,-8
CCCCn1c(SCc2ccc(-c3ccccc3C#N)cc2)n[nH]c1=O,7,6
O=C(c1cccc(F)c1)N1CCCC(OCc2cccc(C(F)(F)F)c2)C1 (stereo unspecified),-6,1
O=C(CSc1nc(O)cc(=O)[nH]1)Nc1ccccc1,13,8
COc1cccc(CN(C)C(=O)c2sc(=O)n(Cc3ccc(C(=O)N(C)C)cc3)c2C)c1,3,3
FC(F)(F)c1cc(-c2ccco2)nc(-n2nnc3ccccc32)n1,11,2
CN(Cc1ccc2nonc2c1)Cc1nc(-c2cccs2)no1,15,3
Cc1ccc(Cc2nc(N3CCCN(C(=O)c4cccs4)CC3)c3c(-c4cccnc4)noc3n2)cc1,13,2
